# Screens: PubChem, ICCB-Longwood Screening Facility, Harvard Medical School
# Ba CapD inh: blocks the Bacillus anthracis CapD enzyme; z-score (concentration not given with the values); actives 0.23% (n = 140,000); purified CapD enzyme, fluorescence intensity read-out; stronger effect = lower value; some hits fall short of the stated cut; AID 492967;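 active = z-score under -4 in either of two replicates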;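 also: stock transfer was 100 nL into about 40 µL; score is relative to mean and spread of the plate; one replicate is shown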
# AID504770: E. coli YBA685 growth inhibition, screen for V. cholerae RctB inhibitors | E. coli YBA685 rctB-dependent plasmid, OD600 growth, 3 h; stronger effect = lower value | actives 0.27% (n = 130,000) | z-score (test concentration not listed) | AID 504770;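 active = z-score under -2 on both plates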;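 also: wells of about 30 µL received 100 nL stock; score is relative to mean and SD of the test wells; the first replicate is given; strong numbers were not always called active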
# The depositor's hits bear a star; x = no result given; & = joins results of further samples.
# Every second line gives: Ba CapD inh, AID504770
COC(=O)C1=C(C)NC(SCC(=O)NCc2ccccc2)=C(C#N)C1c1ccccc1F (stereo not given)
  5, -1.5
c1cc2c(cc1C13CC4CC(CC(C4)C1)C3)c1c3n2CCNC3CCC1 (stereo not given)
  0.2, x
CSc1nsc(SC)c1CO
  -0.12, -0.6
CC(C)(N)COc1nonc1-c1ccccc1
  x, -0.65
CCCCOC(=O)N1C2C=CC(C2)C1(C(F)(F)F)C(F)(F)F (stereo not given)
  0.38, 0
NCC1(c2ccccc2)CCCC1
  0.33, -1.1
O=C1NC(=S)NC(=O)C1=Cc1ccncc1
  -0.32, 1.6
CC(C)c1ccc(NC(=O)C2CCN(S(=O)(=O)c3ccc4c(c3)CCC(=O)N4)CC2)cc1
  -0.22, -0.25
Cc1nc(-c2ccc3c(c2)CCO3)no1
  1.3, -0.45
CCOc1ccc(OCc2cccc(C(=O)N3CCCC3)c2)cc1
  -1.4, 0.35
CC(C)CNS(=O)(=O)c1cccc2c(N)cccc12
  -0.02, -0.5
O=C(Nc1cc(C(=O)N2CC=C(c3ccccc3)CC2)ccc1N1CC2CC(C1)c1cccc(=O)n1C2)c1cccnc1 (stereo not given)
  -1.2, x
O=C(c1ccccc1)c1cc(-c2ccccn2)c(N2CCOCC2)s1
  -1.1, x
CCCCCOc1ccc(N2C(=O)CSC23C(=O)N(CN2CCC(Cc4ccccc4)CC2)c2ccccc23)cc1 (stereo not given)
  -0.17, x
Cc1ccc(N/C=C/C(=O)c2cnc(-c3ccc(Cl)cc3)s2)cc1
  -0.02, x
O=C(COC(=O)/C=C/c1cccs1)Nc1ncc(Br)s1
  x, -0.25
COC1=CC(=CN(O)c2ccccc2)C=C(OC)C1=O
  -1.3, 0.25
Cc1ccc(S(N)(=O)=O)cc1C(=O)NC(C)C
  -1.2, -0.6
C=CCn1cc(/C=C(\C#N)C(=O)NC2CCCCC2)c2ccccc21
  x, -0.65
O=c1c(C=Nc2cccc(C(F)(F)F)c2)c[nH]n1-c1cccc(Cl)n1
  0.27, x
CCNC(=O)NNC(=O)COc1ccc2c(C(=O)OCC)c3ccccn3c2c1
  -0.24, x
COc1cccc(/C=C/C(=O)Nc2cccc3c2C(=O)NC3=O)c1OC
  x, -0.05
CCC(=O)N1CCN(c2ccc(NC(=O)COc3ccccc3)cc2)CC1
  x, -0.45
CCCCCCc1cc2c(C)cc(=O)oc2cc1O
  23, x
CC/C(=C\c1sc2ccc(OC)cc2[n+]1CC)SCC(=O)O
  -0.15, -0.1
O=C(Nc1nnc(C2CCCC2)s1)C1CC1
  x, 2.5
CCOC(=O)C1(CC)CC(CSC(=N)N)OC1=O (stereo not given)
  0.12, -1.4
CCOc1ccccc1NC(=O)c1c(NC(=O)c2ccccc2F)sc2c1CCCCC2
  0.075, x
CCOC(=O)c1cc(-c2ccccc2)sc1NC(=O)CCN1CCN(CC)CC1
  14, 0.55
Brc1ccc(-c2nc(-c3cccs3)c(-c3cccs3)[nH]2)s1
  8.4, 1.2
CCOC(=O)c1sc(NC(=O)C(CC)Sc2nccn2C)nc1C (stereo not given)
  0.34, x
CCn1c(=N)c(C#N)cc2c(=O)n3cc(C)ccc3nc21
  2.1, -0.7
O=C(c1cccs1)N(Cc1ccccc1)Cc1cccs1
  0.17, -0.6
O=C(NCCC1=CCCCC1)c1ccc2c(=O)n3c(nc2c1)CCCCC3
  0.16, -0.35
Cc1ccc(/C=C/C(=O)O)cc1S(=O)(=O)N1CCc2ccccc2C1
  -0.25, 1
C=C(C)COc1ccc2c(CC)cc(=O)oc2c1OCC(=C)C
  1.3, 0.15
CCCSc1nsc(NC(=O)CC)n1
  x, -0.15
Cc1ccc2c(c1)c1c3n2C=CNC3CCC1 (stereo not given)
  -1, 0
COc1ccccc1N1CCN(C(=O)c2cnn3c(C)c(Cc4cccc(Cl)c4)c(C)nc23)CC1
  1.2, x
COc1ccc(Cl)cc1N1C(=O)CC(N2CC(C)OC(C)C2)C1=O (stereo not given)
  x, 1.4
O=S(=O)(Cc1ccccc1)N1CCC(Oc2cccc(C(F)(F)F)c2)CC1
  -0.23, 0.15
COc1ccccc1Nc1nc2cc(Cl)ccc2o1
  -0.68, -0.8
NC(=O)c1c(NC(=O)CSc2nc3ccccc3s2)sc2c1CCC2
  x, 0.25
COc1cc(NC(C)CCCN)c2ncccc2c1 (stereo not given)
  0.15&-0.2, 0.25
O=C(Nc1ccncc1NC(=O)C1CC1)C1CC1
  0.6, -0.4
O=C(Nc1nc(-c2ccc(Br)s2)cs1)c1cc(=O)c2ccccc2o1
  -0.23, x
CC(=C(C#N)C#N)c1ccc(Cl)cc1
  0.26, x
O=C(O)CCNc1ncnc2c1oc1ccccc12
  1.4, -3.6
Cc1nc2ccc(NS(=O)(=O)c3cccc(C(F)(F)F)c3)cc2nc1C
  0.44, x
O=C(O)c1sccc1OCc1ccccc1
  -0.3, -0.05

# Going on with the list.
# Every second line gives: Ba CapD inh, AID504770
CN1CCN(c2ccc(CN3CCS(=O)(=O)CC3)cc2)CC1
  -0.075, 2
CCc1ccccc1Nc1nc(N)nc(CN(C)Cc2cccs2)n1
  x, 1.1
O=C(CSc1nnc(Cn2nnc3ccccc32)o1)N(Cc1ccc(Cl)cc1)c1ccccc1
  x, 0.85
CSc1nsc(SC)c1C(=O)NN1CCOCC1
  -0.085, -0.7
COc1ccc(C)cc1S(=O)(=O)n1nnc2ccccc21
  0.45, -0.75
CC(C)c1ccc(C#N)c(SCC(=O)Nc2ccccc2C(=O)O)n1
  0.11, x
C=CCc1ccc(OCCOc2ccc(Cl)cc2-c2nc3sc4c(c3c(=O)[nH]2)CCCC4)c(OC)c1
  1.9, x
CC(=O)N1CCC(N(C(=O)COc2cccnc2)C2CC2)CC1
  -0.54, x
COc1ccc(COC(=O)C2=C(C)NC3=C(C(=O)CC(C)(C)C3)C2c2ccc(OCCO)c(OC)c2)cc1 (stereo not given)
  14, x
Nc1c(-c2ccccc2)c(CN2CCOCC2)nn1-c1ccccc1
  -1.1, -0.55

# Among those listed so far, six have fluorine.
# Every second line gives: Ba CapD inh, AID504770
COC(=O)C1=C(C)NC(SCC(=O)NCc2ccccc2)=C(C#N)C1c1ccccc1F (stereo not given)
  5, -1.5
CCCCOC(=O)N1C2C=CC(C2)C1(C(F)(F)F)C(F)(F)F (stereo not given)
  0.38, 0
O=c1c(C=Nc2cccc(C(F)(F)F)c2)c[nH]n1-c1cccc(Cl)n1
  0.27, x
CCOc1ccccc1NC(=O)c1c(NC(=O)c2ccccc2F)sc2c1CCCCC2
  0.075, x
O=S(=O)(Cc1ccccc1)N1CCC(Oc2cccc(C(F)(F)F)c2)CC1
  -0.23, 0.15
Cc1nc2ccc(NS(=O)(=O)c3cccc(C(F)(F)F)c3)cc2nc1C
  0.44, x

# (next part)
# Every second line gives: Ba CapD inh, AID504770
COC(=O)c1cnn(C(=O)Nc2ccccc2)c1C(OC)OC
  9.8, -0.65
O=C1N(c2ccccc2)C(=Nc2ccccc2)SC12CC2
  0.33, -1.1
CC(N=Cc1c(O)ccc2ccccc12)C12CC3CC(CC(C3)C1)C2 (stereo not given)
  0.22, -0.55
Cc1cc(C)c2c(=O)[nH]n(C3CCCCCC3)c2n1
  0.13, 1.3
C(=Nc1ccc(Nc2ccccc2)cc1)c1ccco1
  0.15, 0.2
COc1ccc(C(=O)N2CCN(c3ccc(Cl)cc3)CC2)cc1
  0.14, x
Cn1c(N)c(C(=S)NC(=O)c2cccs2)c(=O)n(C)c1=O
  x, -0.05
O=C1Nc2ccccc2S/C1=C\C(=O)N1CCN(c2ccc(F)cc2)CC1
  0.35, -0.7
CCCC(=O)NC(c1ccc(OC)c(OC)c1)c1cc(Cl)c2cccnc2c1O (stereo not given)
  -0.42, -0.6
Cc1nc2ncnn2c(C)c1CCC(=O)Nc1ccccc1
  -0.8, 0
CC(C)(C)c1ccc(NC(=O)N2CCN(C3c4ccccc4-c4ccccc43)CC2)cc1
  -0.11, 0.25
c1ccc(-c2nnc3cc(-c4ccccc4)sc3n2)cc1
  0.12, -0.7
COC(=O)/C(=C(/O)CSc1nnc(C2CC2)n1C)c1nc2ccccc2[nH]1
  x, -0.45
O=S(=O)(c1ccccc1)n1cc(-n2cncn2)c(-c2ccc(Cl)cc2)n1
  0.27, x
CNC(=O)c1c(C)nc(SCC(=O)OCC(=O)Nc2ccc(C)c(C)c2)c(C#N)c1-c1ccco1
  x, 1.6
Cc1ccc(C(=O)ON=C2CCN(c3ccc([N+](=O)[O-])cc3)CC2)cc1
  -0.89, x
COc1ccc(-c2[nH]ncc2CN2CCN(c3ncc(C(F)(F)F)cc3Cl)CC2)cc1
  -0.57, -1.1
Cc1ccc(-c2cc(C(=O)NC(C)(C)CO)no2)cc1
  -0.35, 0
CC1CC(C(=O)NNC(=O)c2ccc3nsnc3c2)C2CCCC12 (stereo not given)
  -0.17, x
Nc1nnc(SCc2cc(F)cc3c2OCOC3)s1
  -0.39, 2.4
CN(C)c1ccc(O)c2c1C[C@H]1C[C@H]3[C@H](N(C)C)C(=O)C(C(N)=O)=C(O)[C@@]3(O)C(=O)C1=C2O
  0.45&-0.55, x
Cc1c(C#N)c(N)n(Cc2ccco2)c1C
  x, 0.85
CCc1ccc(OCC(=O)Nc2ccc(S(=O)(=O)C(F)F)cc2)cc1
  x, 0.95
COc1ccc(NC(=O)c2sc(=S)n3c2[nH]c(=O)c2ccccc23)cc1
  -2.3, 0.85
CNc1c(C(=O)c2ccc(OC)c(OC)c2)sc(N)c1C#N
  -1.1, -1
Cn1c(=O)oc2cc(S(=O)(=O)NC3CCCCC3)ccc21
  -0.35, 0.95
Cc1cc2c(cc1C)N(C(=O)CN1C(=O)c3ccccc3C1=O)C(C)(C)c1ssc(=S)c1-2
  -1.3, x
N#C/C(=C\c1ccc(F)cc1F)S(=O)(=O)c1ccccc1
  -0.67, -0.3
COCCOC(=O)C1=C(C)OC(N)=C(C#N)C1c1cc2cc3c(cc2nc1Cl)OCO3 (stereo not given)
  x, -1
CCOc1ccc(-c2nn(-c3ccccc3)cc2/C=C2\SC(=S)N(CCCC(=O)O)C2=O)cc1[N+](=O)[O-]
  -1.4, x
COc1ccccc1CN(C)C(C)C(=O)NC1CCCc2ccccc21 (stereo not given)
  x, -0.75
Cc1cccc(NC(=O)c2ccc(S(=O)(=O)N3CCCCC3)cc2)n1
  x, -0.3
CCC(Sc1ccccc1C(=O)O)C(=O)O (stereo not given)
  0.38, -0.4
CCC(Sc1nc(=O)cc(N)n1-c1cccc(C)c1)C(=O)Nc1nnc(C)s1 (stereo not given)
  0.035, 1.4
CC(C)(C)NC(=O)CC12CC3CC(CC(C3)C1)C2
  -0.085, -0.1
Fc1ccc(Oc2nc3ccccc3cc2-c2cccc(C(F)(F)F)c2)cc1
  2.6, x
Cc1c(Sc2ccc(Cl)cc2)cnn1C(=O)NC(C)C
  0.19, 0.55
Nc1nc(SCc2ccc(Cl)c(Cl)c2)n[nH]1
  -0.57, 2.1
CCOC(=O)Nc1cc(C(F)(F)F)cc(C(F)(F)F)c1
  -0.015, x
CS(=O)c1ccc2c(c1)CCN2C(=O)CCC(=O)NCC(=O)OC(C)(C)C (stereo not given)
  -0.47, x
Cc1ccc(S(=O)(=O)NCc2cccnc2)cc1
  x, -0.85
CCOC(=O)C1CSC2(CCCCC2)N1 (stereo not given)
  0.22, -1.4
CC1=NN(c2ccccc2)C(=O)C1C(=O)O (stereo not given)
  x, 1.3
Cc1ccc(OCC(=O)NS(=O)(=O)c2ccccc2)cc1
  0.65, -0.1
Nc1ccc(Sc2ccc(N3C(=O)c4ccc(N)cc4C3=O)cc2)cc1
  -2.2, 0.45
Cc1ccc2nc3nc(NCc4cccnc4)c(C(N)=O)cc3c(=O)n2c1
  x, 0.45
CC(C)OC(=O)CSc1nnc(CNc2ccc(F)cc2)n1C1CCCCC1
  x, 0
COc1ccc(N2CCN(C(=O)c3cccnc3SCc3ccc(C(F)(F)F)cc3)CC2)cc1
  -0.46, x
Fc1cccc(NCc2ccc3c(c2)OCO3)c1
  -1.1, 0.15
Cc1cccc(-c2n[nH]n3c2nc(=O)c2ccccc23)c1
  x, -0.95

# (further entries)
# Every second line gives: Ba CapD inh, AID504770
CCOC(=O)c1sc(/N=C/c2cccc(Br)c2)cc1C
  -0.45, -0.2
CC(C)(CNS(=O)(=O)c1ccc(Cl)cc1)N1CCCCC1
  0.39, -0.35
O=C(NCC(c1ccco1)N1CCCC1)c1ccc(-n2cccn2)cc1 (stereo not given)
  x, -0.85
COc1ccc(C2CC(=O)C3=C(C2)Nc2ccccc2NC3c2coc3ccc(Cl)cc3c2=O)cc1 (stereo not given)
  -0.62, x
CC(=O)N1c2ccccc2NC2=C(C(=O)CC(c3ccc(Cl)c(Cl)c3)C2)C1c1cccnc1 (stereo not given)
  7.1, x
CCCCP(=O)(c1ccccn1)c1ccccn1
  x, -0.3
COc1ccc(-c2n[nH]n3c2nc(=O)c2ccccc23)cc1
  -0.14, 1.8
Cc1ccc2oc(-c3ccccc3Cl)nc2c1
  3.1, 0.7
O=C(Nc1ccc(N2S(=O)(=O)c3ccccc3S2(=O)=O)cc1)c1ccco1
  -0.41, x
O=C(NC1CCCc2ccccc21)C1CCCC1 (stereo not given)
  x, -0.1
NC(=O)Oc1ccc(I)cc1
  -0.33, -0.8
COC(=O)c1cc(OC)c(OC)cc1NS(=O)(=O)c1cc(C(F)(F)F)cc(C(F)(F)F)c1
  -0.085, x
Cc1ccc(Nc2nc3nonc3nc2Nc2ccccc2F)cc1
  -2.9, x
CNC1=C(c2ccc(C(F)(F)F)cc2)C(=O)C(c2ccccc2)O1 (stereo not given)
  -0.29, -1.1
Oc1cccc(-c2nc(-c3ccccc3)c3ccccn23)c1
  5.5, 1.2

# Arranged by heavy-atom count (largest number first): part of the list above.
# Every second line gives: Ba CapD inh, AID504770
COC(=O)c1cc(OC)c(OC)cc1NS(=O)(=O)c1cc(C(F)(F)F)cc(C(F)(F)F)c1
  -0.085, x
CNC1=C(c2ccc(C(F)(F)F)cc2)C(=O)C(c2ccccc2)O1 (stereo not given)
  -0.29, -1.1
Oc1cccc(-c2nc(-c3ccccc3)c3ccccn23)c1
  5.5, 1.2
